Methyltransferases: Primary Screen for Target Class Profiling of Small Molecule Inhibitors of Methyltransferases; calls only at 40 µM; hit rate 3.9% among 25,000; purified enzyme, MTase-Glo SAH luminescence; active compounds read low; AID 1745853, 2022; active = -50% or lower on at least one of six enzymes; inconclusive = the cases between; inactive = as a rule above -30% on all six;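 further: enzymes were COMT GAMT GNMT HNMT NNMT and PNMT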
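Each enzyme was reacted with SAM and its substrate, with compounds tested once at 40 uM; SAH formed was read by MTase-Glo luminescence.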
Calls only; i = inactive; ? = inconclusive; + = active, no number; ! = not confirmed by another sample. On the % scale 0 is the no-effect control and ±100 the full control effect. Some of the compounds tested. The share of hits here may be higher or lower than overall.

| SMILES | Methyltransferases |
| --- | --- |
| Cc1nc2cccnc2n1CC1CCCN(S(=O)(=O)c2ccc3c(c2)OCCO3)C1 (stereo unspecified) | + |
| CCC(C)NC(=O)c1ccc2c(=O)n(CCC(C)C)c3nn(C)c(=O)n3c2c1 (stereo unspecified) | i |
| CC1(C(=O)NC2CCCCCC2)Cn2c(cc3sccc32)C(=O)N1CCCN1CCCCC1 (stereo unspecified) | i |
| O=C1N(C2CCCCC2)C[C@H]2CN(S(=O)(=O)c3ccccc3)CCN12 | i |
| Cc1ccc([S+](=O)([O-])N2CC3(Cc4ccccc4N([S+](C)(=O)[O-])C3)C2)cc1 | i |
| CCN1C(=O)c2cc(C(=O)NCc3ccccc3Br)nn2CC1(C)C(=O)NC1CCCC1 (stereo unspecified) | i |
| Cc1cccc(N2C(=O)c3cc4occc4n3CC2(C)C(=O)NC2CCCC(C)C2C)c1C (stereo unspecified) | i |
| CNC(=O)[C@@H]1C[C@@H](n2cc(CNC(=O)Cc3ccc(F)cc3)nn2)CN1 | i |
| Cc1ccc(CCNC(=O)Cn2ccc3cc(S(=O)(=O)N4CCC(C)CC4)ccc32)cc1 | i |
| O=c1c2ccccc2n2c(SCc3ccc(F)cc3)nnc2n1CCc1ccccc1 | i |
| Cc1ccc(C)c(N2CCN(S(=O)(=O)c3cc4c(cc3C)n(C)c(=O)n4C)CC2)c1 | i |
| O=[S+]([O-])(c1cccc(C(F)(F)F)c1)N1CCCC2(CC(c3ccccn3)=NO2)C1 (stereo unspecified) | i |
| CC1=C(C)C(=O)OC(C(C)C2C(O)CC3C4C5OC5C5(O)CC(OC6OC(CO)C(O)C(O)C6O)CC(O)C5(C)C4CCC32C)C1 (stereo unspecified) | i |
| COc1cccc(CN2C(=O)c3ccc(-c4ccccc4)n3CC2(C)C(=O)NC2CCCCCC2)c1 (stereo unspecified) | i |
| COc1ccc(OC)c(CCNC(=O)CCc2nnc3n(CCC(C)C)c(=O)c4ccccc4n23)c1 | i |
| Cc1cccc(NC(=O)Cn2c(=O)oc3cc(S(=O)(=O)N4CCCCC4)ccc32)c1C | i |
| Cc1ccc(S(=O)(=O)N2CCc3nc4cc[nH]n4c(=O)c3C2)cc1C | i |
| c1ccc(CN2CCC[C@H]2c2nc(-c3ccc(N4CCOCC4)nc3)no2)cc1 | i |
| Cc1ccc(Cn2c(=O)c3ccc(C(=O)NCC(C)C)cc3n3c(=O)n(Cc4ccc(F)cc4)nc23)cc1 | i |
| COc1ccc(NC(=O)CSc2nnc3n(Cc4ccc(F)cc4)c(=O)c4ccccc4n23)cc1 | i |

Next section.
| SMILES | Methyltransferases |
| --- | --- |
| CC(=O)Nc1c2n(c3ccccc13)CC(C)(C(=O)NCCC(C)C)N(Cc1ccccc1Cl)C2=O (stereo unspecified) | i |
| CCCC1c2ccc(C)n2CCN1C(=O)Nc1ccc(Cl)cc1 (stereo unspecified) | i |
| O=C1c2ccccc2C(=O)c2c(NCCc3ccc(O)cc3)ccc(NCCc3ccc(O)cc3)c21 | + |
| CCOC(=O)CCC(=O)O[C@H]1[C@H](O[C@@H]2[C@@H](C)[C@H](O[C@H]3C[C@@](C)(OC)[C@@H](O)[C@H](C)O3)[C@@H](C)C(=O)O[C@H](CC)[C@@](C)(O)[C@H](O)[C@@H](C)C(=O)[C@H](C)CC2(C)O)O[C@H](C)C[C@@H]1N(C)C (stereo partly specified) | i |
| NCC(O)(CS(=O)(=O)O)c1ccc(Cl)cc1 (stereo unspecified) | i |
| COc1ccccc1CNC(=O)C1(C)Cn2nc(-c3ccccc3)cc2C(=O)N1c1cccc(F)c1 (stereo unspecified) | i |
| CC(C)[C@H]1CCC(CO)=C[C@@H]1/C=C(\CO)C(=O)O | i |
| COC(=O)c1ncn2c1C(=O)N(c1ccc(C(C)C)cc1)C(C)(C(=O)NC1CCCCC1)C2 (stereo unspecified) | i |
| N#Cc1cccnc1-c1cccc(C(=O)NCCNC(=O)c2ccccc2)c1 | i |
| Cc1ccc(Cn2c(=O)c3ccc(C(=O)NC(C)C)cc3n3c(=O)n(CC(=O)NC(C)(C)C)nc23)cc1 | i |
| CC(C)CN1CC(COc2ccc3ccccc3c2)Oc2ccnc(-c3ccc(OCC(=O)O)cc3)c2C1=O (stereo unspecified) | i |
| CC(C)OCCCN1C(=O)c2cc(-c3ccc(C(C)C)cc3)nn2CC1(C)C(=O)NC1CCCCC1 (stereo unspecified) | i |
| CCCn1c(=O)c2ccc(C(=O)NC(C)CC)cc2n2c(=O)n(CC(=O)Nc3ccc(Cl)cc3)nc12 (stereo unspecified) | i |
| CCCC1=CC2=C(CO1)C(=O)C(C)(OC(=O)c1c(C)cc(OC)cc1O)C(O)C2 (stereo unspecified) | i |
| CC1(C(=O)NC2CCCCCCC2)Cn2c(cc3occc32)C(=O)N1c1cccc(Cl)c1 (stereo unspecified) | i |
| COc1ccc(CN(C)Cc2ccoc2)cc1OCC(O)CN1CCCCC1 (stereo unspecified) | i |
| CC(C)OCCCn1c(=O)c2ccccc2n2c(=O)n(Cc3ccc(Cl)cc3)nc12 | i |
| Cc1noc([C@H]2CCN(C(=O)NCc3ccccc3)C[C@H]2NC(=O)C2CCOCC2)n1 | i |
| CNC(=O)[C@@H]1CN(C(=O)Cc2cc(C)no2)C[C@H]1COC | i |
| CCC(C)C(=O)OC1CC(O)C23C4OCC5(C(O)CC2C1(C)C(O)O4)C3C(=O)CC1(C)C(c2ccoc2)CC2OC215 (stereo unspecified) | ? |

(listing goes on)
| SMILES | Methyltransferases |
| --- | --- |
| CC(C)Cn1c(=O)c2ccccc2n2c(=O)n(Cc3ccccc3Cl)nc12 | i |
| CC(C)Cn1c(=O)c2ccccc2n2c(=O)n(CC(=O)Nc3cccc(F)c3)nc12 | i |
| CCOC(=O)c1cc2n(n1)CC(C)(C(=O)NCc1ccccc1)N(CCc1ccc(SC)cc1)C2=O (stereo unspecified) | i |
| CCOc1ccc(CCNC(=O)CCc2nnc3n(Cc4ccc(Cl)cc4)c(=O)c4ccccc4n23)cc1 | i |
| O=C(CCCCCN1CCN(c2ccccc2-c2ccccc2)CC1)NC1CCCc2ccccc21 (stereo unspecified) | i |
| COc1cc(OC)cc(N2C(=O)c3ccc(-c4ccco4)n3CC2(C)C(=O)NC2CCCC2)c1 (stereo unspecified) | i |
| COc1cc(O)c(C(=O)O)c(CCc2ccccc2)c1 | i |
| CCOC(=O)c1cc2n(n1)CC(C)(C(=O)NCc1ccccc1)N(c1ccc(C)c(C)c1)C2=O (stereo unspecified) | i |
| CCCCNc1c(C(=O)OCC)c(C)nc2c1cnn2CC | i |
| Cc1ncoc1C(=O)N1CC[C@@H]2COCCN(Cc3ccncc3)[C@@H]2C1 | i |
| COc1ccc(OC)c(S(=O)(=O)N2CCC3(CC2)CC(CC(=O)N2CCOCC2)CCO3)c1 (stereo unspecified) | i |
| CC1(C)[C@H](Cc2cc(CC3CCCCC3)on2)C[C@@H]1NC1CCOCC1 | ? |
| Cc1ccc(-c2cc(-c3cccnc3)nc3c(C)noc23)c(C)c1 | i |
| CC1(C(=O)NC2CCCCC2)Cc2ccccc2C(=O)N1CCc1ccccc1 (stereo unspecified) | i |
| CC(C)C[C@@H]1NC(=O)[C@@H]2C[C@@]34C[C@@H]5[C@@]6(C)CCCC(C)(C)C6CC[C@@]5(C)N(c5ccccc53)[C@H]4N2C1=O (stereo partly specified) | i |
| COc1cc(-c2nc(N[C@H](CO)Cc3ccccc3)ccc2C(=O)NCCOc2ccccc2)cc(OC)c1OC | i |
| CC1CCC2C(C(=O)O)=CC3(O)CC(C)(C)CC123 (stereo unspecified) | i |
| CCn1c(=O)n(CC)c2cc(S(=O)(=O)N3CCN(c4ccc(OC)cc4)CC3)ccc21 | i |
| CC1OC(OC2C(OC3C(O[C@H]4CC[C@@]5(C)C(CC[C@]6(C)C5C(=O)CC5=C7CC(C)(C)CC(O)[C@]7(C)CC[C@]56C)C4(C)C)OC(C(=O)O)C(O)C3O)OCC(O)C2O)C(O)C(O)C1O (stereo partly specified) | i |
| COCCn1c2c(c(=O)n1-c1ccccc1)CCN(C(=O)c1cc3ccccc3n1C)C2 | i |

Next section.
| SMILES | Methyltransferases |
| --- | --- |
| COc1ccccc1CNC(=O)c1cc2c(N3CCSCC3)nc(C)cn2n1 | i |
| CC1(C(=O)NC2CCCCCC2)Cn2c(ccc2-c2ccccc2)C(=O)N1Cc1ccccc1 (stereo unspecified) | i |
| Cc1ccc(NC(=O)C(C)C)cc1C1CCN(Cc2ccc(Oc3ccc(F)c(F)c3)cc2)CC1 | ? |
| CC(C)CNc1ncnc2c1CN(C1CNC1)C(=O)CN2C | i |
| CC(C)n1nc(CNC(=O)c2ccc(F)c(F)c2)c2ccccc21 | i |
| CC1C(=O)CC2C3CCC(C(=O)O)C12CC3(C)CO (stereo unspecified) | ? |
| COc1cc2nc(N3CCCCC3)nc(NC3CCN(Cc4ccccc4)CC3)c2cc1OC | +! |
| CN(C)CC[C@@H](c1ccc(Br)cc1)c1ccccn1 | i |
| CCOC(=O)[C@@H](N)Cc1ccc(-c2cc(O[C@H](c3ccc(Cl)cc3-n3ccc(C)n3)C(F)(F)F)nc(N)n2)cc1 | + |
| CCOc1ccccc1CNC(=O)c1cc2n(n1)CC(C)(C(=O)NCc1ccc(C)cc1)N(C)C2=O (stereo unspecified) | i |
| CCCn1c(=O)c2cc(Cl)ccc2n2c(=O)n(Cc3ccc(F)cc3)nc12 | i |
| COc1ccc(-c2cc3n(n2)CC(C)(C(=O)NCc2ccccc2OC)N(CCCc2ccccc2)C3=O)cc1 (stereo unspecified) | i |
| CC(=O)NC1(C)CCN(Cc2ccccc2-c2ccccc2Oc2ccccc2)C1 (stereo unspecified) | i |
| CCCN1C(=O)c2c(C(=O)NCc3cccc(F)c3)ncn2CC1(C)C(=O)NC1CCCC1 (stereo unspecified) | i |
| CCOc1cc(C(=O)Nc2ccc(Cl)c(-c3nc4ccccc4[nH]3)c2)cc(OCC)c1OCC | ? |
| CN(C(=O)c1ccc2oc(Cc3ccc(Cl)cc3)nc2c1)[C@H]1COC[C@@H]1O | i |
| CCN1CCN(CCCNC(=O)c2cc3n(n2)CC(C)(C(=O)NC2CCCCC2)N(C)C3=O)CC1 (stereo unspecified) | i |
| COc1cccc(CN2C(=O)c3cc4sccc4n3CC2(C)C(=O)NC2CCCCCCC2)c1 (stereo unspecified) | i |
| O=C1NCCCCCCN(C(=O)c2cc(C3CC3)[nH]n2)[C@H]2CCCC[C@@H]12 | i |
| O=C(CCC1CCCN(Cc2cccn2-c2ccccn2)C1)Nc1ccccc1F (stereo unspecified) | ? |

More structures.
| SMILES | Methyltransferases |
| --- | --- |
| CN1C(=O)c2cc(C(=O)NCCCN3CCc4ccccc4C3)nn2CC1(C)C(=O)NCc1ccc(F)cc1 (stereo unspecified) | i |
| CCc1ccc(CNc2ncncc2-c2nc(-c3ccccc3)no2)cc1 | i |
| Cc1onc(C(=O)N2CCN(C(c3ccc(Cl)cc3)c3ccc(Cl)cc3)CC2)c1[N+](=O)[O-] | ? |
| CCOCCCNC(=O)C1c2c(n(C)c3ccccc23)SCC(=O)N1c1ccc(C(C)C)cc1 (stereo unspecified) | i |
| CC1CCC(NC(=O)C2(C)Cn3c(nc4ccccc43)C(=O)N2Cc2cccc(Cl)c2)CC1 (stereo unspecified) | i |
| O=C1C(Cc2ccc(O)cc2)N2C(=O)CCN(C(=O)NCc3ccccc3)C2CN1Cc1cccc2ccccc12 (stereo unspecified) | i |
| CN(Cc1cccc(-c2nn[nH]n2)c1)C(=O)c1ccc(C2CCCNC2)cc1 (stereo unspecified) | ? |
| O=C(CSc1nnc2n(Cc3ccccc3)c(=O)c3ccccc3n12)Nc1ccc(F)cc1 | i |
| CCN1/C(=C/C(C)=O)Sc2ccc(O)cc21 | ? |
| CC1=C2C=C(CO)C(CO)CCC2(C)CCC1=O (stereo unspecified) | i |
| Cc1ccc(Cn2c(=O)c3ccccc3n3c(-c4ccccc4C)nnc23)cc1 | i |
| CC(C)CCn1c(=O)c2ccc(C(=O)NC(C)C)cc2n2c(=O)n(Cc3ccc(F)cc3)nc12 | i |
| O=C(Nc1ccc(F)cc1)c1ccc2ccnn2c1 | i |
| CCO[C@H]1CN(C2CCN(c3ccc4c(c3)CCC4)CC2)C[C@@H]1O | i |
| O=C(NCCC1=CCCCC1)c1c(-c2cncnc2)cc(=O)n2c1CCCC2 | i |
| Cn1c(=O)c2ccc(C(=O)NC3CCCC3)cc2n2c(SCc3cccc(F)c3)nnc12 | i |
| COC(=O)c1ncn2c1C(=O)N(Cc1ccc(OC)cc1OC)C(C)(C(=O)NC1CCCCC1)C2 (stereo unspecified) | i |
| COc1ccc(NC(=O)Cn2c(=O)c3cc(Cl)ccc3n3nncc23)cc1 | i |
| CC(C)n1cnnc1CC1CCN(S(=O)(=O)Cc2ccccc2)C1 (stereo unspecified) | i |
| CCc1ccc(NC(=O)c2sc(=S)n3c2[nH]c(=O)c2cc(Cl)ccc23)cc1 | i |
| CCOc1cccc(CN2CCCC(CNC(=O)c3cccc(OC)c3OC)C2)c1 (stereo unspecified) | i |
| COc1cc(OC)cc(-c2ccc3c(-c4ccc(F)cc4)[nH]nc3n2)c1 | i |

A draw from above in order of molecular weight, ascending:
| SMILES | Methyltransferases |
| --- | --- |
| O=C(Nc1ccc(F)cc1)c1ccc2ccnn2c1 | i |
| CCO[C@H]1CN(C2CCN(c3ccc4c(c3)CCC4)CC2)C[C@@H]1O | i |
| CCOc1cccc(CN2CCCC(CNC(=O)c3cccc(OC)c3OC)C2)c1 (stereo unspecified) | i |
| CCc1ccc(NC(=O)c2sc(=S)n3c2[nH]c(=O)c2cc(Cl)ccc23)cc1 | i |
| O=C(CSc1nnc2n(Cc3ccccc3)c(=O)c3ccccc3n12)Nc1ccc(F)cc1 | i |
| Cc1onc(C(=O)N2CCN(C(c3ccc(Cl)cc3)c3ccc(Cl)cc3)CC2)c1[N+](=O)[O-] | ? |
| O=C1C(Cc2ccc(O)cc2)N2C(=O)CCN(C(=O)NCc3ccccc3)C2CN1Cc1cccc2ccccc12 (stereo unspecified) | i |
